Screening data (PubChem BioAssay)
2A Renilla – lowers the Renilla signal of an FMDV 2A StopGo reporter; HEK cells with a luciferase reporter of 2A StopGo recoding; Potency, µM (top dose mostly 57.5 µM), for inactives: top-dose signal change, negative = less light; 120,000 tested, 0.32% active; active means well fitted falling curve with a large enough effect; inconclusive means small, poorly fitted or top-dose-only effect; inactive means no such curve, though single readings can be large or run the other way; note: nearly all actives have a fitted effect of over 55% in size; overnight with compound
2A firefly – lowers the firefly signal of an FMDV 2A StopGo reporter; AID 1745856; 120,000 tested, 0.23% active; Potency, µM (titrated, usually from 57.5 µM), without a hit: at the top dose signal change, negative = less light; HEK cells with a luciferase reporter of 2A StopGo recoding; active = well fitted falling curve with a large enough effect; inconclusive = small, poorly fitted or top-dose-only effect; inactive = no such curve, though single readings can be large or run the other way; note: nearly all actives have a fitted effect of over 60% in size; overnight with compound
* hit, by the source's call; u = inconclusive; [ ] = remark or other dose. % is set by controls: 0 for no effect and ±100 for the full control effect; potency is the fitted concentration of half-maximal effect. An excerpt, so the mix of outcomes need not match the whole.

SMILES | 2A Renilla | 2A firefly
COC(=O)C1CN(Cc2ccccc2)CCS(=O)(=O)N1Cc1cn(Cc2ccccc2)nn1 (stereo unspecified) | 13.7% | -5.6%
CCOC(=O)c1ccc(NC(=O)CC(C)n2nc(C)cc2C)cc1 (stereo unspecified) | -5.9% | -1.3%
Cc1ccc(C(=O)O)cc1NC(=O)C(C)Oc1ccc(C(C)(C)C)cc1 (stereo unspecified) | -10.6%[1.06 µM] | 8.1%
CCSc1nc(=O)c2c(n1C)NC(=O)CC2c1ccc(C)cc1C (stereo unspecified) | 2.2% | 12.7%
COC(=O)CNC(=O)C1CCN(S(=O)(=O)c2cccc3nsnc23)CC1 | -6.7% | -27.2%
O=c1cc2nc(-c3ccccc3F)nc(SCc3ccc(Br)cc3)n2[nH]1 | 4.4% | 6.5%
Cc1ccccc1CN1CCN(c2nc3c(c(=O)[nH]c(=O)n3C)n2CCC(C)C)CC1 | 8.9% | 8.8%
COc1ccc(CCNC(=O)c2cnc3sc(N4CCCC4)nn3c2=O)cc1OC | -9.6% | -13.8%
COc1ccc(OC)c(NC(=O)N2CCN(Cc3nc4ccc(C)cc4o3)CC2)c1 | -19.1% | -14.5%
COC(=O)c1cccc(S(=O)(=O)Nc2ccc(Cl)c3cccnc23)c1 | u | u
COc1ccc(-c2nonc2NC(=O)c2oc3ccc(F)cc3c2C)cc1OC | -2.6% | 0.8%
COC(=O)c1ccc(OCC(=O)c2ccc3c(c2)CCO3)c(OC)c1 | 84.1%[activator] | 70.7%[activator]
Cc1ccc(C)c(S(=O)(=O)NCC(c2ccco2)S(=O)(=O)c2ccc(F)cc2)c1 (stereo unspecified) | -2.9% | -17.3%
O=C(CSc1nc2c([nH]c3ccccc32)c(=O)n1-c1ccc(F)cc1)NCc1ccccc1 | -0.5% | -2.8%
Cc1ccc(CN(C)C(=O)CSc2nc(-c3cccs3)nc3ccccc23)o1 | u | u
Cc1cc(C)cc(C(=O)NCCn2c(C)cc3ccccc32)c1 | 21.1% | 11.6%
CCC(=O)Nc1ccccc1C(=O)OCc1cc(=O)n2cc(C)sc2n1 | -14.5% | -22.2%
COc1ccccc1CNC(=O)CN1C(=O)CCCc2ccccc21 | -3.3% | -3.9%
S=C(NN=C1CCCCCC1)NC1CCCCC1 | 120.7%[activator] | 25.1%
O=S1(=O)c2c(cccc2N2CCSCC2)Oc2ccccc2CN1Cc1cn(Cc2cccc(C(F)(F)F)c2)nn1 | 141.7%[activator] | -2.9%
Cc1cc(F)ccc1S(=O)(=O)NCCc1csc2nc(-c3ccc(Cl)cc3)nn12 | 81.5%[activator] | -1.7%
Cc1cc(O)c2c(C)c(CC(=O)NCc3ccccc3Cl)c(=O)oc2c1 | -0.3% | -8.2%
CCCCn1c(=O)[nH]c(=O)c2c1nc(CSc1nnc(C(F)(F)F)n1C)n2CC | 2.4% | 2.3%
CN(CC(=O)Nc1ccccc1Cl)C(=O)c1nn(-c2ccccc2)c2c1CCC2 | 4.6% | 3.1%
Cc1c(C(=O)OC(C)C)sc(N)c1C#N | 17.2% | 0.0%
CCC1(CCC(C)C)C(=O)NC(=O)NC1=O | -10.8%[114 µM] | -6.4%[22.9 µM]
Cc1ccc2nsnc2c1NC(=O)c1ccc(C#N)cc1F | 16.2% | -0.1%
Cc1ccc(NC(=O)/C=C/c2ccccc2)c(Br)c1 | 9.0% | 94.9%[activator]
COc1ccc(-c2cn3nc(N4CCC(C(=O)NCc5ccc(F)cc5)CC4)sc3n2)cc1 | -11.9% | 114.0%[activator]
CC(CNCc1ccco1)COc1ccc(F)cc1 (stereo unspecified) | 9.0% | 9.9%
CCOc1ccc(NC(=O)c2ccc(NC(=O)c3ccc4ccccc4n3)cc2)cc1 | 3.6% | 103.9%[activator]
CN1CCN(c2oc(/C=C/c3cccs3)nc2C#N)CC1 | 60.5%[activator] | 0.0%
CCOc1ccc2c(=O)c(Oc3ccc(C(=O)OC)cc3)coc2c1 | 11.6% | 42.2%[activator]
CC(C)NC(=O)c1ccc2c(c1)CCCN2C(=O)c1ccc(Cl)cc1 | 3.5% | 0.6%
Cc1nc2nc(CC(=O)Nc3ccccc3)nn2c(C)c1Cc1ccccc1Cl | 0.6% | 21.4%
CSc1ccccc1C(=O)Nc1c(F)cccc1F | 11.2% | 13.9%
CSc1ccc(C2SCC(=O)Nc3n[nH]c(C)c32)cc1 (stereo unspecified) | -5.7% | 0.7%
Clc1ccccc1CN1CCc2nc(N3CCN(c4ncccn4)CC3)ncc2C1 | u | -33.2%
COc1ccc(CCNC(=O)C(=O)NCC(c2cccs2)S(=O)(=O)c2cccs2)cc1 (stereo unspecified) | 17.6% | -11.7%
COc1cc(NC(=O)c2nc3cc(C)c(C)cc3n(C)c2=O)cc(OC)c1OC | -5.9% | -21.2%
Cc1ccc(C2C(C#N)=C(N)Oc3cc(C)n(C)c(=O)c32)o1 (stereo unspecified) | -2.8% | 2.9%
COc1ccc(CN2CCc3c(c(=O)n4ncc(C(=O)N5CCN(c6ccc(F)cc6)CC5)c4n3C)C2)cc1 | u | u
CCc1cccc(C)c1Nc1c(-c2ccccc2)nc2sccn12 | 1.7% | 0.0%
O=C1CCC(C(=O)Nc2ccc(Cl)c(Cl)c2)N1 (stereo unspecified) | -10.7% | 1.1%
CCCCn1c(=NC(=O)C(C)(C)Oc2ccc(Cl)cc2)c(C(=O)OCC)cc2c(=O)n3ccccc3nc21 | -0.9% | -9.7%
Cn1c(SCC(=O)Nc2ccccc2F)nc2c([nH]c3ccccc32)c1=O | 5.9% | -17.4%
COc1ccc(CC(=O)Nc2nonc2-c2ccc(OC(C)C)cc2)cc1 | 4.6% | 13.4%
Cn1nc(C(=O)NCCc2ccccc2)c2ccccc2c1=O | 25.1% | 46.8%[activator]
CN(C)c1nc(N)nc(CSc2ccccc2F)n1 | 15.0% | 79.4%[activator]
CCCn1c(=O)n(CCC(=O)N(C)CC(=O)Nc2cccc(F)c2)c2ccccc21 | 2.2% | -7.0%
CCCc1nn2c(=O)cc(COC(=O)C3CCCCC3)nc2s1 | -19.9% | -13.5%
Cc1cc(OC(C)C(=O)Nc2ccc3nsnc3c2)ccc1Cl (stereo unspecified) | 15.0% | 3.5%
CCCN1CCC(NC(=O)CCc2c[nH]c3ccccc23)CC1 | -12.3% | -18.6%
CC(=O)c1cc(-c2ccccc2)n(CCC(=O)NCc2ccc(C)cc2)c1C | -1.3% | 0.2%
NC(=O)c1ccc(COC(=O)C23CC4CC(CC(Cl)(C4)C2)C3)c([N+](=O)[O-])c1 | 9.7% | -4.7%
Cc1ccc(NC(=O)c2cccc(N(C)C)c2)c(C)c1 | 3.9%[1.06 µM] | 208.5%[activator]
COc1ccc(-c2cn3nc(SCC(=O)Nc4ccccc4F)ccc3n2)cc1 | 5.9% | 25.1%
S=C(NCc1ccccc1)N/N=C/c1ccccc1Br | 59.0%[activator] | 0.0%
O=C(c1ccc(-n2cccc2)cc1)C(C(=O)C(F)(F)F)C12CC3CC(CC(C3)C1)C2 (stereo unspecified) | 135.4%[activator] | -1.5%
CCc1ccc2c(COC(=O)C3=NN(C)C(=O)CC3)cc(=O)oc2c1 | -16.5% | -0.7%

Fetched one by one from the list above:
SMILES | 2A Renilla | 2A firefly
Cn1c(SCC(=O)Nc2ccccc2F)nc2c([nH]c3ccccc32)c1=O | 5.9% | -17.4%
O=C(c1ccc(-n2cccc2)cc1)C(C(=O)C(F)(F)F)C12CC3CC(CC(C3)C1)C2 (stereo unspecified) | 135.4%[activator] | -1.5%
COc1ccc(CC(=O)Nc2nonc2-c2ccc(OC(C)C)cc2)cc1 | 4.6% | 13.4%
Cc1cc(OC(C)C(=O)Nc2ccc3nsnc3c2)ccc1Cl (stereo unspecified) | 15.0% | 3.5%

An excerpt of these results, as comma-separated lines.
mol,2A Renilla,2A firefly
Cc1ccc(NC(=O)c2cccc(N(C)C)c2)c(C)c1,3.9%[1.06 µM],208.5%[activator]
CC(=O)c1cc(-c2ccccc2)n(CCC(=O)NCc2ccc(C)cc2)c1C,-1.3%,0.2%
O=C(c1ccc(-n2cccc2)cc1)C(C(=O)C(F)(F)F)C12CC3CC(CC(C3)C1)C2 (stereo unspecified),135.4%[activator],-1.5%
Cn1nc(C(=O)NCCc2ccccc2)c2ccccc2c1=O,25.1%,46.8%[activator]
CN(C)c1nc(N)nc(CSc2ccccc2F)n1,15.0%,79.4%[activator]
COc1ccc(-c2cn3nc(SCC(=O)Nc4ccccc4F)ccc3n2)cc1,5.9%,25.1%

Later entries:
SMILES | 2A Renilla | 2A firefly
O=C(Cn1nnc(-c2cccc(C(F)(F)F)c2)n1)N1CCCC1c1ccc2c(c1)OCCO2 (stereo unspecified) | 114.8%[activator] | 2.8%
COc1ccccc1NC(=O)C1CCN(S(=O)(=O)c2ccc(OC)c3ncccc23)CC1 | 2.7% | 1.1%
COc1ccc(NS(=O)(=O)c2cc(-c3onc(C)c3C)ccc2C)c(OC)c1 | 244.8%[activator] | 22.6%
CCOC(=O)c1ccc2c(c1)N(Cc1ccc(F)cc1Cl)C(=O)c1ccccc1S2(=O)=O | 26.6% | 6.4%
COP(=O)(OC)c1nc(-c2cccs2)oc1NCc1ccc(C)cc1 | 63.5%[activator] | 10.7%
CC(C)n1nc(C(=O)NC2CCN(Cc3ccccc3)C2)c2ccccc2c1=O (stereo unspecified) | -2.3% | -12.8%
O=C(Nc1ccc(Cl)cc1)c1ccccc1OCC1CCCO1 (stereo unspecified) | 4.9% | 2.3%
Cc1ccc2nc(-c3ccc(NC(=O)C4CCC(C)(C(=O)O)C4(C)C)cc3)sc2c1 (stereo unspecified) | 15.0% | -17.5%
CCOc1ccccc1CNC(=O)c1cc(-c2ccc(OC)cc2)nc2ccc(C(C)C)cc12 | -5.8% | -9.7%
CC(Sc1nc(C(F)(F)F)nc2ccccc12)C(=O)N1CCCC1 (stereo unspecified) | 3.1% | 2.2%
CC(C)c1noc(C(C)Nc2ccc(N3CCCC3=O)c(Cl)c2)n1 (stereo unspecified) | -18.7% | -12.2%
Clc1cccc(-n2ncc3c(NCCCn4ccnc4)ncnc32)c1 | 0.0% | 151.1%[activator]
CN(C)CCn1nnnc1SCC1=C(C(=O)O)N2C(=O)[C@@H](NC(=O)Cc3csc(N)n3)[C@H]2SC1 | 0.3% | -4.7%[11.5 µM]
CCOc1ccc(NC(=O)C(Cc2ccccc2OC)c2nn[nH]n2)cc1 (stereo unspecified) | -17.9% | -9.7%
CC(C)(CNC(=O)CCCc1ccc(Cl)cc1)C(N)=O | 12.5% | 28.8%
COc1ccc2[nH]cc(C(NCC(C)C)C(=O)O)c2c1 (stereo unspecified) | 53.7%[activator] | -3.0%
COc1ccc(NC(=O)CSc2nc(C)cc3c2C(=O)OC3)cc1 | -2.5% | -4.9%
COc1cc(OC)c(Nc2cc(C)nc3ncnn23)cc1Cl | 4.0% | 102.5%[activator]
O=C(OCc1cc(-c2ccc(Cl)cc2)no1)c1cc(Br)c[nH]1 | 19.3% | 0.0%
COc1cccc(-c2nc(-c3ccc(-c4ccccc4)nc3OC)no2)c1 | 30.1%[activator] | -7.3%
CCc1nn2c(-c3ccccc3OC)ccnc2c1-c1ccc(F)cc1 | 12.2% | 32.9%[activator]
O=C(CCCc1cccs1)NCc1ccc(OCc2cccnc2)cc1 | -5.2% | 13.9%
CCCCc1cc(=O)oc2cc(OCC(=O)NCc3ccccn3)ccc12 | -8.7% | -0.7%
O=C(Nc1ccnn1Cc1cccs1)c1ccc(S(=O)(=O)N2CCCC2)cc1 | u | 14.1µM*
CCS(=O)(=O)N1CCc2cc(C(=O)NCc3ccc(OC)cc3)ccc21 | 13.6% | 0.0%
O=C(c1cc(-c2ccccc2Cl)nc2ccccc12)N1CCC1 | 6.7% | 3.4%
O=C(/C=C/c1cccc(O)c1)c1ccc(F)c(Cl)c1 | 25.6% | 0.0%
CCOc1cc(C#N)c(NC(=O)c2ccc(F)cc2)cc1OCC | 4.7% | 1.2%
CCOC(=O)CCn1cnc2onc(-c3cc(OC)ccc3Cl)c2c1=O | 71.8%[activator] | 132.1%[activator]
COCCN(CCOC)CC(=O)OC | 0.4% | -4.8%
COc1ccc(C(=O)Nc2nnc(S(=O)(=O)N(CC(C)C)c3ccc(C)cc3)s2)cc1OC | -5.4% | 0.3%
CC(NC(=O)CN1CCN(c2ccc([N+](=O)[O-])c3cnccc23)CC1)c1ccccc1 (stereo unspecified) | -19.2% | -23.3%
CC(C)c1ccc(C(=O)NCc2cccc(CNC(=O)c3ccc(C(C)C)cc3)c2)cc1 | 6.7% | 0.0%
Cc1ccc(COc2c(Br)cc(/C=C(\C#N)c3nc4ccccc4[nH]3)cc2Br)cc1 | 4.6% | 0.0%
Nc1ccc(Br)cc1-c1ccccc1 | 21.5% | 24.2%
CCN(CC)CCNC(=O)CN1C(=O)c2cccnc2Oc2ccc(C)cc21 | -17.2% | -19.7%
O=C(NC(Cc1ccccc1)C(=O)N1CCN(c2ncccn2)CC1)c1ccccc1 (stereo unspecified) | 99.4%[activator] | 12.5%
COc1ccc(C(=O)Nc2cccc(/C=C(/C#N)C(=O)NC3CC3)c2)cc1 | -8.2% | u
CC(O)CNCCNc1ccc([N+](=O)[O-])c2cccnc12 (stereo unspecified) | -15.4% | 5.9%
Cc1cc(S(=O)(=O)Nc2ccc3[nH]c(=O)sc3c2)ccc1F | -9.8% | -7.8%
Cc1ccc(CNC(=O)CCNS(=O)(=O)c2c(C)[nH]c(C)c2C(=O)N2CCCC2)cc1 | 13.6% | -1.8%
CCOC(=O)c1sc2ccccc2c1S(=O)(=O)N1CCN(c2cccc(OC)c2)CC1 | 27.3% | 2.7%
CCCSCCCNC(=O)c1ccc(C)c(NC(=O)c2nsc3ccccc23)c1 | -8.7% | -12.1%
COP(=O)(OC)c1nc(-c2cccs2)oc1NCc1ccccc1Cl | 152.3%[activator] | 7.9%
